# Screens (PubChem BioAssay)
# Insulin prom inh: TRM-6 insulin promoter activity inhibition; TRM-6 cells (human fetal islet line), insulin promoter-eGFP reporter, imaging; reporter expression induced with tamoxifen; inhibition, % at 2 µM; 0.9% of 130,000 active; AID 1273;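 active = inhibition above the mean plus 3 SD, with well images judged a real hit on visual review, cut at about 60% in these data, passing the limit was not always enough; inconclusive = inhibition over the cutoff but images rejected on review; inactive = inhibition not above the cutoff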
# HSV replic up: increases HSV replication in cells. HSV replication augmentation in cells, fold increase. 0.005% of 220,000 active. AID 1956. maximum fold increase;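 active = peak rise of 1.5-fold or more in the series; inconclusive = self-fluorescent or not available for retest; tested in PC3 cells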;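 also: first round at 10 µM; read as green reporter fluorescence; hits show the peak of a series up to 25 µM; 1 = signal of infected wells without compound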
# PKD1 inh: blocks activity of human protein kinase D1 | PKD1 kinase fluorescence polarization assay | 0.056% of 200,000 active | inhibition, %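 (about 10 µM by stock and volumes)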 | AID 797 | Q15139;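 active = inhibition of 50% or more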;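 also: controls were vehicle for no effect and a reference inhibitor for full effect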
# RGS16-Gao: regulators of human RGS16-Galphao interaction. O15492+P09471. bead-based flow cytometry RGS16-Galphao binding, fluorescence; actives lie on both sides. binding response (% of control), % at 10 µM. 0.38% of 220,000 active. AID 1441;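 active = below 25% or above 175%, edge rows of some plates excepted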;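 also: Galphao activated by GDP with aluminum fluoride before binding; 100% = wells without compound and 0% = beads without RGS; some results beyond the cut were filed as inactive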
# Target sequence (O15492 whole entry, looked up): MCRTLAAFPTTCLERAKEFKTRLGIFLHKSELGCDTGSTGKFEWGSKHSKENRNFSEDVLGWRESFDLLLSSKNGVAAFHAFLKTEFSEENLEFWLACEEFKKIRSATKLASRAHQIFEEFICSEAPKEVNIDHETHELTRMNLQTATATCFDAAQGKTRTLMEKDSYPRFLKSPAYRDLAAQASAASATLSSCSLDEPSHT
# Target sequence (P09471 whole entry, looked up): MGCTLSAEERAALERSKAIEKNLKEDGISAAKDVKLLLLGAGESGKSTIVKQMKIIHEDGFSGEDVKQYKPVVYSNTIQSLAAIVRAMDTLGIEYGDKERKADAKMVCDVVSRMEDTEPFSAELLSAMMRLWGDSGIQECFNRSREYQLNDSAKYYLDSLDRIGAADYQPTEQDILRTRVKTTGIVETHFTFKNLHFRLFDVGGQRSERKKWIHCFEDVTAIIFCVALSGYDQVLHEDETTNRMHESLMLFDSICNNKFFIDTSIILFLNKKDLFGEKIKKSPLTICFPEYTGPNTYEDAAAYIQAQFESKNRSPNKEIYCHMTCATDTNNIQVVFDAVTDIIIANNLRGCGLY
# GALR2 agonist: GALR2 (human) receptor agonism. activation, %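 (tested at 5 µM)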. O43603. GALR2-expressing cells, agonist activation read-out. 0.48% of 140,000 active;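 active = above mean plus 3 SD of all compounds, about 5% in these data, not always enough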;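 also: 0% = vehicle buffer wells and 100% = reference agonist at full effect; tested in CHO reporter cells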
# Target sequence (O43603 whole entry, looked up): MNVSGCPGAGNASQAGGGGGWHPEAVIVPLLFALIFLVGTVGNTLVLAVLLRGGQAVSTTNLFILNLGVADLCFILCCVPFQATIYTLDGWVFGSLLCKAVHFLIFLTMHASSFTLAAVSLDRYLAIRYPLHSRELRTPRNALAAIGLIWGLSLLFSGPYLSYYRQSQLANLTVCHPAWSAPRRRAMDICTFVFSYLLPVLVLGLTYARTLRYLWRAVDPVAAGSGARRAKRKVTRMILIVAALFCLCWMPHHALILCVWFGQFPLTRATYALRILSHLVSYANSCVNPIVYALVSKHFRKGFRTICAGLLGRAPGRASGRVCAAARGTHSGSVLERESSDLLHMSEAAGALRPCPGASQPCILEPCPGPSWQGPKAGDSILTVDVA
# Insulin prom inh cell count: recorded beside Insulin prom inh, whose call it bears; normalized cell count, %; measured here: cell count, toxicity; reference of the scale not given here;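 cells exposed to compound for 48 h; stained nuclei by imaging scaled within each plate; lower means fewer cells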
# HSV replic up primary fold: second read-out of HSV replic up, no call of its own (marks repeat the call); fold increase; compound at 10 µM; measured here: primary screen fold increase 10 uM; tested in PC3 cells;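 GFP signal in the first replicate; 1 = infected wells without compound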
# Numbers without * were called inactive; i = inactive; u = inconclusive; x = no result given.
mol	Insulin prom inh cell count	GALR2 agonist	Insulin prom inh	HSV replic up	RGS16-Gao	HSV replic up primary fold	PKD1 inh
O=C(O)CNC(=O)c1cccc(C(F)(F)F)c1	x	x	x	i	96	0.94	-2
Cc1cc(NC(=O)c2cc([N+](=O)[O-])cc([N+](=O)[O-])c2)n(-c2ccccc2)n1	x	-0.9	x	i	97	0.93	-4
O=C(CCN1CCN(c2ccccc2)CC1)N/N=C/c1ccccc1O	x	x	x	i	102	0.71	-3
Oc1ccc(Cl)cc1C=Nc1ccc(Br)cc1	x	x	x	i	103	1	-2
CCOC(=O)CSc1ncnc2c1sc1nc(N3CCOCC3)c3c(c12)CCCC3	93	-2.9	0	i	99	0.84	-5
Cc1ccc(C)c(NC(=O)COC(=O)CNC(=O)c2ccccc2Cl)c1	167	x	0	i	95	0.93	0
COCCCNC(=O)/C=C/c1ccc(Cl)cc1	x	-1.4	x	i	102	1.5	-6
Cn1nnnc1SCCNCc1ccccc1OCc1ccc(Cl)cc1	65	0.3	-9	i	105	0.9	-2
CCOCCCNC(=O)Cc1ccc(OC)c(OC)c1	57	0.0	54	i	99	0.89	-3
COC(=O)c1ccc(COc2ccc(-c3nn[nH]n3)cc2)cc1	x	0.0	x	i	104	1	-1
CC1(C)Cc2ccccc2-c2nnc(-c3ccc(O)cc3)n21	x	-2.9	x	x	101	x	5
CCSc1nnc(CCNC(=O)OC(C)(C)C)o1	83	-0.8	-17	i	102	0.87	-1
COc1ccc(S(=O)(=O)c2cnc3ccccc3n2)cc1	131	x	-8	x	101	x	-3
Cc1cc(-c2n[nH]c(=S)o2)c(C)n1-c1ccccc1	221	-2.3	3	i	96	0.97	-1
COc1ccc(COc2cc(-c3cccc(OC)c3)nc3ccc(NC(=O)c4ccc(N(C)C)cc4)cc23)cc1	72	-2.8	40	i	116	0.62	-6
CC1=C(C(N)=O)C(c2ccc(C)o2)C(C(N)=O)=C(C)N1	57	-1.0	-6	i	101	0.77	-9
CCN(c1ccccc1)S(=O)(=O)c1cc(C(=O)Nc2ccc(F)c(F)c2)ccc1F	x	-1.4	x	i	102	0.75	-6
C=CCN=c1scc(C)n1/N=C/c1ccc(O)c(O)c1	x	x	x	i	95	0.77	-2
CC(C)NC(=O)COC(=O)c1ccccc1C(=O)c1ccccc1	61	x	-18	i	107	0.95	-8
CC1Cc2ccccc2N1c1ncnc2c1nnn2Cc1ccccc1Cl (configuration not stated)	125	-1.3	39	i	107	0.97	-6

# 5 records picked at random from those above:
mol	Insulin prom inh cell count	GALR2 agonist	Insulin prom inh	HSV replic up	RGS16-Gao	HSV replic up primary fold	PKD1 inh
Cn1nnnc1SCCNCc1ccccc1OCc1ccc(Cl)cc1	65	0.3	-9	i	105	0.9	-2
CC1Cc2ccccc2N1c1ncnc2c1nnn2Cc1ccccc1Cl (configuration not stated)	125	-1.3	39	i	107	0.97	-6
COCCCNC(=O)/C=C/c1ccc(Cl)cc1	x	-1.4	x	i	102	1.5	-6
O=C(O)CNC(=O)c1cccc(C(F)(F)F)c1	x	x	x	i	96	0.94	-2
Oc1ccc(Cl)cc1C=Nc1ccc(Br)cc1	x	x	x	i	103	1	-2

# (further entries)
mol	Insulin prom inh cell count	GALR2 agonist	Insulin prom inh	HSV replic up	RGS16-Gao	HSV replic up primary fold	PKD1 inh
Cc1ccc(C2=NNC(C(O)C(O)C(O)C(C)O)S2)cc1 (configuration not stated)	70	-1.4	51	i	99	0.73	-5
O=C1NCC(NC(=O)C(F)(F)F)c2cc3c(cc21)OCO3 (configuration not stated)	x	x	x	i	102	0.93	-3
CCCc1[nH]nc2c1C(c1c(C)nn(-c3ccccc3)c1Cl)C(C#N)=C(N)O2 (configuration not stated)	111	0.1	-6	i	99	0.97	-4
CCN1/C(=N\N)c2cccc3cccc1c23	x	x	x	u	96	x	-3
CC(CCc1ccccc1)NC(=O)CNC(=S)N(Cc1cccs1)C1CCCC1 (configuration not stated)	161	x	-50	i	115	0.86	7
Cc1nnc(SCC(=O)NCc2ccco2)n1-c1ccc(F)cc1	110	-1.2	19	i	91	1.1	-4
CN1/C(=C/C=C(C#N)C#N)C=Cc2ccccc21	x	x	x	i	101	1.3	x
C=CCNC(=S)NNC(=O)COc1ccc(Br)cc1	117	-0.1	-20	i	90	0.91	0
Cn1c(=O)oc2cc(S(=O)(=O)N3CCC(C(=O)NCc4ccc(F)cc4)CC3)ccc21	x	-1.0	x	i	87	0.87	1
O=C(OCc1c(Cl)cccc1Cl)c1cccnc1Cl	94	-2.3	32	i	109	0.88	3
CC(O)C(NS(=O)(=O)c1ccc(Cl)cc1)C(=O)OCC(=O)Nc1cccnc1Cl (configuration not stated)	79	-1.1	14	i	117	0.97	-6
COc1ccc(NC(=O)C2CSC(C)(C)N2C=O)cc1 (configuration not stated)	94	x	-46	i	103	1.1	-2
Cc1n[nH]c(=O)nc1N/N=C/c1ccco1	x	x	x	i	97	1	-4
COc1ccc(/C=N/c2nc3ccccc3n2CCN2CCCCC2)cc1OC	144	0.3	20	i	195	0.85	-5
CCOC(=O)CC(=O)NC(C)(C)CCCCC(C)(C)NC(=O)CC(=O)OCC	x	x	x	i	102	0.97	x
C(=N\Nc1ncnc2ccccc12)/c1ccccc1	51*	x	78*	i	172	0.99	-3
CCn1c(CSc2nnc(-c3ccncc3)n2CCOC)nc2cc(C(=O)O)ccc21	92	x	-146	i	98	0.94	1
Cc1nnc(-c2ccccc2)c(=O)n1/N=C/c1c(O)ccc2ccccc12	x	-2.8	x	u	96	x	-7
CC(=O)O/N=C(/c1nonc1N)N1CCN(c2ccc([N+](=O)[O-])cc2Cl)CC1	154	-1.5	-8	i	102	1	-4
CCOC(=O)C1=C(C)NC2=C(C(=O)CC(C)(C)C2)C1c1ccc(N(C)C)cc1 (configuration not stated)	71	0.8	29	i	101	0.7	-9
NS(=O)(=O)c1ccc(CCNC(=S)Nc2ccccc2)cc1	41	-1.9	6	i	70	1.1	5
Cc1ccc(S(=O)(=O)NC2OC(=O)C(Cl)=C2Cl)cc1 (configuration not stated)	85	-0.5	-12	i	96	1.1	4
Cc1ccc(NC2=C(Cl)C(=O)OC2OC(=O)c2ccco2)c(C)c1 (configuration not stated)	78	-2.0	67	i	112	0.83	4
CSc1nc2n(n1)C(c1ccccn1)C1=C(CC(C)(C)CC1=O)N2 (configuration not stated)	74	-1.2	31	i	101	1	0
Cc1cc(NC(=O)CSc2ncn(-c3ccccc3)n2)no1	75	-1.9	-3	i	102	0.99	0
COc1ccc(C(=O)NNC(=O)CSc2nnc(-c3ccc(O)cc3)n2C)cc1	x	x	x	i	106	0.87	-7
Cc1ccc(CN2CC34C=CC(O3)C(C(=O)NCc3ccc5c(c3)OCO5)C4C2=O)cc1 (configuration not stated)	x	-1.7	x	i	70	0.99	-16
Cc1nn(CCC#N)c2nc(-c3ccccc3)cc(C(F)(F)F)c12	71	-0.8	37	i	106	1	-6
CCOc1ccc(CCNC(=O)c2[nH]c(C)c(C(C)=O)c2CC)cc1OCC	87	x	-33	i	105	0.91	-3
CCCS(=O)(=O)c1c(S(=O)(=O)CCC)c2c(C)cccn2c1C(N)=O	x	-0.5	x	i	106	1	-6
O=C(NCc1ccc2c(c1)OCO2)c1cc(-c2ccc(Cl)cc2Cl)on1	88	-0.5	-20	i	101	1.1	-8
Cc1cc2ccccc2cc(C)c1=O	184	-2.0	36	i	108	0.78	-19
COc1ccc(C(=O)NCC2CCCO2)cc1 (configuration not stated)	81	0.1	36	i	104	1	-12
O=C(CSC(=S)N1CCCCC1)c1c(F)cccc1F	x	x	x	i	93	0.95	x
CCOCCCNC(=O)c1ccc(N(C)S(=O)(=O)c2ccc(OC)cc2)cc1	93	-1.3	-93	i	75	1	2
Cc1ccc(-c2[nH]c3ccccc3c2SCCNC(=O)c2cc3ccccc3oc2=O)cc1	99	-3.2	14	i	x	1	-2
Cc1nn(Cc2ccc(C(=O)N3c4ccc(F)cc4CCC3C)o2)c(C)c1Br (configuration not stated)	x	1.1	x	i	91	0.95	2
O=C1N=c2ccccc2=C1c1c(O)n(-c2cccc(F)c2)[nH]c1=O	88	-0.9	-1	i	46	1.1	-15
O=C(/C=C/c1ccco1)Nc1cccnc1Cl	x	x	x	i	116	0.98	x
CC(=O)N1CCN(C(=O)CCc2nc3sc4c(c3c(=O)[nH]2)CCCC4)CC1	101	-1.7	26	i	102	0.74	-10
COc1cc2c(cc1NC(=O)CSc1nnc(Cc3cccs3)n1Cc1ccco1)oc1ccccc12	x	-1.7	x	i	102	0.92	10
Cc1c(Cl)cccc1NC(=O)CSCC(N)=O	112	-2.1	-208	i	102	1.3	1
CC(=O)c1cccc(NC(=O)c2cc(Cl)sc2Cl)c1	x	-0.6	x	i	102	1.2	-1
O=C1N(CC(=O)N2CCc3ccccc32)CCN1Cc1ccc(Cl)cc1	38	-2.1	-7	i	104	0.99	-3
Cc1cc(N2C(=O)c3ccc(C(=O)NCc4ccccc4)cc3C2=O)no1	x	-5.3	x	i	102	1	-2
Cn1c(=O)c2c(nc(SCCNS(=O)(=O)c3ccccc3)n2C)n(C)c1=O	x	-1.6	x	i	99	0.99	-5
CNC(=O)CCSSCCC(=O)NC	x	x	x	i	107	1	0
CCCCN(CCCC)S(=O)(=O)c1ccc(NC(=O)CN2CCOCC2)cc1	93	-1.6	-6	i	100	0.9	1
N#CCCn1c(SCC(=O)Nc2ccc(N3CCOCC3)cc2)nc2ccccc21	137	0.6	-8	i	106	0.91	-9
O=C(NC1CCCCCCC1)c1ccc2c(c1)OCO2	37	-1.8	22	i	97	0.79	1
CSc1nnc(C)c(=O)n1COC(=O)COc1ccc(Cl)cc1Cl	110	x	-8	i	101	0.92	-3
C/C(=N\OC(=O)c1c(-c2c(F)cccc2Cl)noc1C)c1nccs1	x	x	x	i	98	0.98	-5
CC(=O)N(c1cccc(C(F)(F)F)c1)c1nc(/C=C/C(=O)O)cs1	x	x	x	i	100	1	x
CSC1=NCCN1C(=O)c1ccc2ccccc2c1	x	x	x	i	109	0.9	x
COc1ccc(/C=N/NC(=O)CNC(=O)c2cccs2)cc1	x	-1.9	x	i	104	1.1	-2
COc1ccc(N(C)C(=O)c2ccc3snnc3c2)cc1	x	-1.3	x	i	102	0.93	5
CN(c1ccccc1)S(=O)(=O)c1cccc(C(=O)Nc2ccc3c(c2)CCC3)c1	57	0.1	-20	i	18*	0.87	3
CN1CCN(C(=S)Nc2cc([N+](=O)[O-])ccc2Cl)CC1	87	-2.2	15	i	147	0.89	-10
CCCC1=[N+](CC(=O)c2ccccc2)CCn2c(C)ccc21	129	-2.3	-107	i	102	0.8	1
Cc1ccc(-n2nnnc2C(Cl)c2nnnn2-c2ccc(C)cc2)cc1	63	-1.5	-68	i	99	1.1	3

# Going on with the list:
mol	Insulin prom inh cell count	GALR2 agonist	Insulin prom inh	HSV replic up	RGS16-Gao	HSV replic up primary fold	PKD1 inh
CC(=O)Nc1ccc(NC(=O)Cc2sc(C)nc2-c2ccc(C)cc2)cc1	x	-1.1	x	i	100	1.1	-7
O=C(c1ccc(N2C(=O)CCC2=O)cc1)N1CCOCC1	113	-1.0	-12	i	100	0.98	-12
CC(=O)/C=C1/C(=O)Nc2ccccc21	74	x	44	i	97	1.1	11
Cc1cccc(-n2c3nc(=O)[nH]c(=O)c-3cc3c(C)nn(-c4ccccc4)c32)c1	45*	-1.1	62*	i	75	0.96	5
Cc1ccc(NC(=O)CC2C(=O)N(Cc3ccccc3)C(=S)N2NC(=O)c2ccccc2)c(C)c1 (configuration not stated)	x	0.1	x	i	104	0.86	-14
COc1cc(NS(=O)(=O)c2ccc(OC)c(C)c2C)c(OC)cc1Cl	51	-0.2	-227	i	102	0.65	-3
Cc1cc(C(=O)N2CCN(c3ncccn3)CC2)sc1-c1ccccc1	89	0.2	17	i	x	0.71	-6
COc1ccc(-c2noc(C3CCCN(C(=O)Nc4ccccc4)C3)n2)cc1 (configuration not stated)	78	x	6	i	90	0.75	4
O=C(CSc1ccc(-c2cccc([N+](=O)[O-])c2)nn1)NCc1ccccc1	59	x	-266	i	95	0.79	0
